Screens: PubChem BioAssay, National Center for Advancing Translational Sciences (NCATS)
gsp antagonist: antagonists of gsp mutant (McCune-Albright syndrome); gsp-mutant cells, cAMP HTRF, 30 min; control for the full effect not named in the record; Potency, µM (series often up to 76.9 µM), for inactives: at the top dose activity change, negative = inhibition, actives largely listed as inhibitors; actives 0.4% (n = 340,000); active = falling curve of any shape with a large fitted effect; inconclusive = falling curve, mostly with a smaller effect; inactive = flat or rising curve; cell line not stated here;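 further: intracellular cAMP measured with PDE inhibitor Ro 20-1724 present during compound exposure; potency means the concentration at half of the fitted maximal effect; on the % scale 0 is the no-effect control and ±100 the full control effect; nearly all actives have a fitted effect of over 65% in size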
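HTRF cAMP read-out (cAMP-d2 plus anti-cAMP antibody-K in lysis buffer, 30 min RT). Before lysis, cells are exposed to compounds with […] for 30 min at 37C in DPBS containing Ca/Mg, BSA and Tween 20.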
ClpP mod: qHTS Assay for Activators of ClpP. Potency, µM (series often up to 57.5 µM), without a hit: at the top dose activity change, negative = active. ATP-dependent Clp protease proteolytic subunit (Bacillus subtilis (strain 168)), P80244. AID 651965, 2013. purified B. subtilis ClpP, FRET peptide cleavage, 20 min. actives 1.9% (n = 340,000); active = well fitted falling curve with a large enough effect; inconclusive = small, poorly fitted or top-dose-only effect; inactive = no such curve, though single readings can be large or run the other way; further: potency means the concentration at half of the fitted maximal effect; the source files actives as falling curves though it sought activators and does not explain the sign; nearly all actives have a fitted effect of over 65% in size; many hits overshoot -100%
Target sequence (P80244 whole entry, looked up): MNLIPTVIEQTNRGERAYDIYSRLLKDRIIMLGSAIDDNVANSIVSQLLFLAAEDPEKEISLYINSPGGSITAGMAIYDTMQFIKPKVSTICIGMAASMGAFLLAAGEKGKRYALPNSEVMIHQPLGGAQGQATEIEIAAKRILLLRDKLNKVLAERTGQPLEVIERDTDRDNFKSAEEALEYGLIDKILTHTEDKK
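ClpP 10 microg/mL final, pH 8 Tris/KCl buffer with BSA, glycerol, Tween-20; compound pinned in; FRET-FV substrate; RT 20 min; Ex320/Em430; ΔFRET vs ADEP 5.8 microM, DMSO, no enzyme.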
D2 agonist: agonists of human D2 dopamine receptor (beta-arrestin); P14416; DiscoveRx PathHunter D2 beta-arrestin, luminescence, 90 min; 100% = 57 uM dopamine signal; activation, % (no concentration beside the values); actives 0.084% (n = 360,000); in the data active = activation above about 40%; inconclusive = about 15% to 40%; inactive = below about 15%; further: compound concentration not given in the record; the text of the record calls up to 30% inactive
Target sequence (P14416 whole entry, looked up): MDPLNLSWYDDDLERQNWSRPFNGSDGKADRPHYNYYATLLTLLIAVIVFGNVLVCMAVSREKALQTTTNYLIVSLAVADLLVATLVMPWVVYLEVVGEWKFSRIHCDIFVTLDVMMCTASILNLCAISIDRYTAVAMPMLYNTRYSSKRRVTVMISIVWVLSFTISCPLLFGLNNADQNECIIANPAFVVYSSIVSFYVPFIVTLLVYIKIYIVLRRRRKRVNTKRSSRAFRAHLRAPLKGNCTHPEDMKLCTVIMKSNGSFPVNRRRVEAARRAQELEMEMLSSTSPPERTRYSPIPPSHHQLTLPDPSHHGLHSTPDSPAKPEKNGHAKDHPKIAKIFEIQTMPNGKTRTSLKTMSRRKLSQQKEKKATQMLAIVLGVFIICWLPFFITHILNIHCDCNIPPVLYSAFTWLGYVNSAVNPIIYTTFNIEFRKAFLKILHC
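Agonist mode: compounds alone added to overnight-plated D2 PathHunter cells for 90 min at 37 C, with 57 uM final dopamine (EC100) defining full response. Beta-arrestin recruitment detected by chemiluminescent reagent, read after 1 h at ambient temperature.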
Sfp inh: inhibitors of Bacillus subtilis Sfp phosphopantetheinyl transferase. Q9F4F7. Biochemical Sfp PPTase activity, qHTS. Potency, µM, inactives show max response, negative = inhibition, most hits filed as inhibitors. actives 3.5% (n = 310,000); active means well fitted inhibition curve with a large enough effect; inconclusive means small, poorly fitted or top-dose-only effect, or another doubt; inactive means no such curve, though single readings can be large or run the other way;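 further: the enzyme is Sfp with the accession as filed and its product quenches rhodamine fluorescence; potency means the concentration at half of the fitted maximal effect; 0% = enzyme reaction without inhibitor and -100% = no enzyme wells; top concentration of the series not given in the record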
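Fluorescence-quenching assay: 15 nM Sfp-PPTase preincubated 15 min at room temperature with compound, then 5 uM rhodamine-CoA and 12.5 uM BHQ-2-labelled YbbR peptide added. Fluorescence (ex 525/em 598 nm) read at start and after 30 min; difference gives rate.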
PINK1 modulator: changes PINK1 expression; PINK1 immunofluorescence, high-content cytometry, 24 h; Potency, µM (doses to about 76.6 µM), inactives show top-dose activation (PINK1 increase), hits mostly activators; actives 0.2% (n = 410,000); AID 624263; active = well fitted activation curve with a large enough effect; inconclusive = small, poorly fitted or top-dose-only effect; inactive = flat fitted curve, though single readings scatter; cell line not stated here;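 further: potency means the concentration at half of the fitted maximal effect; % of control where 0% means no effect; nearly all actives have a fitted effect of over 65% in size; a mitochondrial uncoupler was the plate control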
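Compound titrations (5 concentrations, 24 h) on a stable cell line; DMSO and CCCP controls. Endpoint: fixed-cell PINK1 immunofluorescence with mitochondrial, cell and nuclear markers, scanned by microplate cytometer.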
gsp agonist: gsp mutant agonism; gsp mutant cells, cAMP HTRF, 30 min; control for the full effect not named in the record; Potency, µM (doses to about 76.9 µM), without a hit: at the top dose activation (cAMP increase), usual class: activators; actives 0.13% (n = 340,000); AID 624287; active = well fitted activation curve with a large enough effect; inconclusive = small, poorly fitted or top-dose-only effect, or another doubt; inactive = no such curve, though single readings can be large or run the other way; cell line not stated here;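 further: phosphodiesterase inhibitor Ro 20-1724 added with compounds to block cAMP breakdown; potency means the concentration at half of the fitted maximal effect; nearly all actives have a fitted effect of over 60% in size; about a fifth of the inactives were tested at one dose only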
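Cells in DMEM/10% FBS with G418 were pretreated with compounds in DMSO plus […] (300 uM stock) for 30 min at 37C. cAMP was measured by HTRF (cAMP-d2 plus anti-cAMP antibody-K) after 30 min at room temperature.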
Menin-MLL FL inh: menin-MLL binding inhibition, fluorescein peptide; Fluorescence polarization, fluorescein-MLL peptide displacement from menin; FP activity change, % at 61.4 µM; 290,000 tested, under 10 active; AID 1766; inconclusive = falling polarisation curve, or a change in total fluorescence; inactive = total fluorescence flat and polarisation flat or rising; no compound was filed as active; the % refers to the polarisation; negative = inhibition;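 further: % of control where 0% means no effect; inhibitors lower the polarisation; unlabelled MLL peptide was the positive control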
* marks the source's active call; other numbers are inactive results; ? = inconclusive; . = no result given; & = joins results of further samples; [ ] = remark or other dose. Compounds as they come; overall some 5.1% were active at least once.

SMILES | gsp antagonist | ClpP mod | D2 agonist | Sfp inh | PINK1 modulator | gsp agonist | Menin-MLL FL inh
COc1ccc(S(=O)(=O)NC(C)(C)C)cc1-c1nnc2c3ccccc3c(C)nn12 | 22% | -8.0%&-3.2% | -1.5 | 15% | 2.7%&1.2% | ? | -1.7
CCN1C(=O)N/C(=C/c2ccc(C)o2)C1=O | -14% | -1.7% | -4.7 | -97% | 0.7% | -47%[inhibitor] | 3.7
CN(Cc1cccs1)C(=O)Cc1csc(-c2ccccc2)n1 | -6% | -6.4% | 6.5 | 7% | -0.5% | -24% | 1.3
Cc1ccc2c(c1)nnn2C1CCN(CC(=O)NCCc2nc3ccccc3[nH]2)CC1 | -10% | -5.2% | -3.1 | 10% | -4.6%[38.3 µM] | -33%[inhibitor] | -1.3
Cc1ccc(C2c3[nH]c4ccccc4c3C[C@H]3C(=O)N(c4ccccc4C(=O)NCCCN4CCOCC4)C(=O)N23)cc1 (some centres undefined) | -15% | -1.4% | -6.3 | -1% | -1.1% | . | -3.8
O=C(O)C1CC(=O)N(CCc2ccccc2)C1 (centres undefined) | 5% | -1.6% | -3.3 | 11% | 0.1% | -9% | 0.0
N#Cc1ccc(C(=O)N2CCCC(c3cc(C(=O)NCc4cccnc4)no3)C2)cc1 (centres undefined) | . | 0.7% | -2.1 | . | 0.9% | . | .
COc1ccc(-c2noc(CCC(=O)NCCCN3CCC(Cc4ccccc4)CC3)n2)cc1 | 11% | -0.9% | 0.0&-0.5 | 3% | -0.2% | 14% | 2.6
COc1ccc(CN2CCC(n3nccc3NC(=O)C3CC3)CC2)cc1O | 4% | -3.3% | -4.0 | 20% | -2.6% | -6% | .
C=CCN(c1ccc(C(=O)Nc2cccc([N+](=O)[O-])c2)cc1)S(C)(=O)=O | -18% | . | 1.8 | 1% | -1.1% | 7%[15.4 µM] | -0.2
COC(=O)c1ccccc1NC(=O)c1cc(C2CC2)on1 | -14% | 3.0% | 1.6 | 3% | -1.1% | 19% | 0.2
COc1ccc(N(CC(=O)NCc2ccc(F)cc2)C(=O)CCC(=O)Nc2ccccn2)cc1 | -31% | . | -1.6 | -4% | 0.7% | 2%[15.4 µM] | 1.9
Cc1ccc(N(C(=O)c2csnn2)C(C(=O)NCc2ccccc2)c2cccnc2)cc1 (centres undefined) | -10% | . | -7.3 | 14% | -0.3% | -2% | -0.3
CC[C@]12c3[nH]c4cc(CCC(=O)N(C)C)ccc4c3CCN1C(=O)[C@@H](CC(=O)NCc1cccc(C(F)(F)F)c1)C[C@@H]2C(=O)N1CCN(C(=O)c2ccco2)CC1 | -5% | -1.7% | 2.7 | . | 1.6% | . | .
COc1ccc(-c2[nH]ncc2CN(C)CCN2CCOCC2)cc1F | 8% | . | -4.1 | 3% | 0.0% | -2%[15.4 µM] | -2.8
O=C(CSc1ccc([N+](=O)[O-])cc1)c1ccccc1 | ? | -1.8% | -2.0 | . | 4.7% | ? | .
COc1cc(/C=N/Nc2nc(N3CCCC3)nc(N3CCCC3)n2)ccc1O | -17% | -22% | -0.6 | 9% | 8.1%[38.3 µM] | 6% | 2.2
CCOc1ccc2ccccc2c1/C=N/NC(=O)CNC(=O)c1ccccc1F | -16% | . | -3.7 | -24% | 2.8% | ? | 9.1
Cc1ccc(NC(=O)CSc2nnc(COc3ccc(C#N)cc3)n2-c2ccccc2)cc1C | 9% | 1.4% | 0.9 | 17% | 1.3% | 0% | 3.7
Cc1ccc(CN2CCN(Cc3ccc(OC(C)C)cc3)CC2CCO)o1 (centres undefined) | 8% | . | -3.7 | -1% | 0.0% | -4%[15.4 µM] | 0.5
CC(C)Cn1c(N)c(C(=O)CSc2ncn[nH]2)c(=O)n(C)c1=O | -12% | . | -3.1 | . | 2.2% | 1%[15.4 µM] | .
Cc1ccc(C(C)C)c(OCCNC(=S)Nc2cccc3ccccc23)c1 | -3% | -3.5% | -1.4 | 8% | 6.9%[38.3 µM] | -5% | 4.6
CC(C)(O)c1ccc2c(c1)CCC1C(C)(C(=O)O)CCCC21C (centres undefined) | -8% | -1.0% | -0.1 | 28% | -0.6% | -54%[inhibitor] | 6.0
CCOC(=O)CC1=NC(=O)CS1 | 2% | 0.4% | 2.0 | 13% | 0.9% | -2% | 2.3
C/C(=N\NC(=O)c1cc(-c2ccccn2)nc2ccccc12)c1cccc([N+](=O)[O-])c1 | -5% | -3.7% | 3.2 | -27% | -0.2% | 1%[15.4 µM] | 0.5
CC(=O)c1cc(CN2CCN(C3CCN(C(C)C)CC3)C(CCO)C2)cs1 (centres undefined) | 4% | -0.5% | 1.2 | 15% | -0.4% | -9% | 0.7
CC(C)N1CCC(N2CCN(Cc3cc(F)ccc3-n3cccn3)CC2CCO)CC1 (centres undefined) | 5% | . | -3.2 | 14% | 0.0% | -2%[15.4 µM] | 0.1
Cc1cc(=O)n2nc(N3CCCC(C(=O)N4CCOCC4)C3)sc2n1 (centres undefined) | 0% | -1.4% | -2.5 | 7% | 0.0% | ? | -2.2
COc1ccc(CNC(=O)c2ccc(NC(=O)C3CCCO3)cc2)cc1 (centres undefined) | 13% | 2.2% | -0.9 | 9% | 0.8% | 17% | -1.2
COC1CCN(Cc2c(C(=O)N3CCc4ccccc4C3)nc3ccc(Cl)cn23)CC1 | -4% | -2.4% | -6.4 | 8% | 1.1% | -38%[inhibitor] | .
CN1CCN(c2ccc(CNC(=O)c3ccc(-c4ccc(F)c(F)c4)c4ccoc34)cc2)CC1 | . | 151% | -3.3 | . | 0.8% | . | .
CC(N=Cc1cccc(O)c1O)c1ccccc1 (centres undefined) | 8% | -1.5% | 5.0 | ? | 3.3% | 17% | 8.9
O=C(COC(=O)CCC(=O)c1ccc(F)cc1)Nc1nnc(-c2ccccc2)o1 | -3% | . | -4.0 | . | 0.8% | -11%[15.4 µM] | .
COCCn1c(=O)[nH]c(=O)c2c1nc(-c1ccc(-c3ccc(Cl)cc3[N+](=O)[O-])o1)n2Cc1ccccc1 | -10% | -14% | 5.6 | ? | 4.9% | 10% | 17
CCCCC(CCC(=O)Nc1nccs1)C(=O)O (centres undefined) | 4% | -0.2% | -3.0 | 7% | 1.0% | -38%[inhibitor] | -0.8
O=c1cc(O)nc(-c2ccccc2)s1 | . | . | -3.4 | 13µM* | -1.9% | 24%[15.4 µM] | 14
CCCCC1CC2=C(C(=O)OC(C)(C)O2)C(c2ccc3ccccc3c2)O1 (centres undefined) | . | -0.4% | -2.2 | . | 4.9% | . | .
CCCN(CCC)c1nc2ccccc2nc1C(C#N)C(=O)OCCOC (centres undefined) | -3% | -6.8% | -4.6 | -15% | 2.7% | -2% | 11
CCCCCCCCCOC(=O)C[n+]1csc(CCO)c1C | 2% | -0.4% | -4.1 | 8% | 1.5% | -5% | 2.9
O=C(COC(=O)c1ncc(Cl)c(Cl)c1Cl)NNC(=O)c1ccccc1 | -12% | -0.9% | 4.1 | . | -0.1% | 11% | .
COc1ccc(CCC(=O)NNC(=O)Cn2nc(C)cc2C)cc1 | -14% | 1.7% | -1.5 | 11% | -0.9% | 3% | .
CCOc1ncccc1C(=O)OCC(=O)Nc1ccc(S(=O)(=O)N2CCCC2)cc1 | -13% | -0.9% | 5.7 | . | 1.0% | 24% | .
C=CCN(CC(=O)NCC1CCCO1)C(=O)CCC(=O)Nc1cc(C)on1 (centres undefined) | 16% | -0.9% | -1.2 | 5% | 1.1% | -1%[15.4 µM] | 14
COCCNC(=O)C1(C)CCCN(C(=O)c2ccc(C)c(F)c2)C1 (centres undefined) | . | -0.6% | -2.3 | . | 2.0% | . | .
Cc1cccc(NC(=O)Cc2nnc(NC(=O)Nc3ccccc3F)s2)c1 | -12% | 1.8% | -2.3 | -5% | 4.1% | 2% | 10
COc1ccc(CCNC(=O)CCS(=O)(=O)c2ccc(C)cc2)cc1OC | -1% | -2.4% | 2.6 | 14% | 2.2%[38.3 µM] | -35%[inhibitor] | 1.2
COc1cccc(CSc2nnnn2-c2ccc(O)cc2)c1 | . | . | 5.1 | 8% | -1.6% | -6%[15.4 µM] | -0.1
CCOC(=O)N1CCC(NC(=O)c2ccc3c(c2)N(C)C(=O)/C(=C/c2cccc(OC)c2)S3)CC1 | ? | -3.5% | 7.5 | 11% | 8.1% | 15% | .
O=[N+]([O-])c1ccc(NN=Cc2ccc(O)cc2)nc1 | -2% | . | -7.8 | . | 5.3% | -5% | .
NS(=O)(=O)c1ccc(CNC(=O)c2sccc2-c2ccccc2)cc1 | 9% | 0.6% | 1.4 | 9% | 0.6% | -71%[inhibitor] | 3.2
O=C(O)/C=C/c1cn(Cc2ccccc2)nc1-c1cccnc1 | 9% | -1.0% | 0.8 | 29% | 0.0% | 9% | 2.7
CCOc1ccc(/C=N/NC(=O)c2cc(-c3ccco3)nc3ccccc23)cc1 | 3% | 4.1% | -0.7 | -9% | 17% | 9% | 6.4
COc1ccc(-c2csc(NC(=S)NC(=O)c3ccc(S(=O)(=O)N(C)C)cc3)n2)cc1OC | -13% | 1.2% | -0.4 | -22% | 4.6% | 14% | .
CC(CCc1ccccc1)NC(=O)CN1C(=O)NC2(CCCCC2)C1=O (centres undefined) | -5% | . | -3.9 | -7% | 3.5% | -1%[15.4 µM] | -2.7
CCn1ccnc1[C@@H]1C[C@H]2CN(Cc3ccccc3OC)C(=O)[C@]23CCCN13 | 2% | 2.0% | -1.9 | 2% | 2.8% | -6% | -0.7
CC1CCN(c2cc(N3CCOCC3)c([N+](=O)[O-])cc2F)CC1 | -20% | 0.1% | -1.0 | -6% | 0.1% | -1% | 1.3
O=C(COc1ccccc1[N+](=O)[O-])Nc1ccccc1N1CCCC1 | -21% | . | -3.3 | 20µM* | 0.6% | -3%[15.4 µM] | 0.4
CC(=O)CNc1ccc(S(=O)(=O)N/N=C/c2ccccc2)cc1 | 5% | . | -1.0 | -4% | -0.3% | ? | 1.1
